Compound activity from PubChem.
KCNQ2 inh: KCNQ2 channel blockers in CHO-K1 cells – cell-based, FluxOR thallium flux, B-score, primary screen (AID 2156); O88943; 20 min; stronger effect = lower value; only compounds with negative scores are shown here; some inactives read as strong as hits; B-score at 10 µM; 310,000 compounds, 1.1% hits;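 active = fluorescence ratio B-score at most minus 3 library SDs, with starting brightness B-score within 2 library SDs, cut at about -5.5 in these data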
Target sequence (O88943 whole entry, looked up): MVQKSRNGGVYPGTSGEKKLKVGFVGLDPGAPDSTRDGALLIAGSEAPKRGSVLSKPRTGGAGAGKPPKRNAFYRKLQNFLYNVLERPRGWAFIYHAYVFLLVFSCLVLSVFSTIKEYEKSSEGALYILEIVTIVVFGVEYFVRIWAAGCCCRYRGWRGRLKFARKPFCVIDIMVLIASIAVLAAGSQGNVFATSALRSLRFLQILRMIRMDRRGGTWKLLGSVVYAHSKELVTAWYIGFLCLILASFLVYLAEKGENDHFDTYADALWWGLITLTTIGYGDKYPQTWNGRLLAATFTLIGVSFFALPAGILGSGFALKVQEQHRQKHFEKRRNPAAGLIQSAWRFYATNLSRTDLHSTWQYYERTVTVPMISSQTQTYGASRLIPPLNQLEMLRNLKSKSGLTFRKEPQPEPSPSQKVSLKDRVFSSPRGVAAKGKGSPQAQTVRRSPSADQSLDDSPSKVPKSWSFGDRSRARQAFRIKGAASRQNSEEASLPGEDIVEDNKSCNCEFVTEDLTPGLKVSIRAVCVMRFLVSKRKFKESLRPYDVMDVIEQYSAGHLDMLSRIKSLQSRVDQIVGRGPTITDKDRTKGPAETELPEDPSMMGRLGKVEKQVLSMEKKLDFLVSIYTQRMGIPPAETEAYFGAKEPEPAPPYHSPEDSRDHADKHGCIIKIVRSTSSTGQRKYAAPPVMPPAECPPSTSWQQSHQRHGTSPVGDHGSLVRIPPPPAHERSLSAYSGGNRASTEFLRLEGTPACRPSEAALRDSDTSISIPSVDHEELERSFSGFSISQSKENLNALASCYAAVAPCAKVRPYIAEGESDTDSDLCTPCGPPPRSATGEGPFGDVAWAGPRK
KCNQ2 inh baseline: recorded beside KCNQ2 inh, whose call it bears; B-score; measured here: initial fluorescence intensity artifact check;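 brightness before thallium and not channel activity; 0 = typical well and far values either way flag optical interference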
Starred values were filed as active, the others as inactive; i = inactive. This is a subset (hit frequency here may not be typical).

SMILES | KCNQ2 inh | KCNQ2 inh baseline
CSc1nsc(SC)c1C(=O)N1CCN(S(=O)(=O)c2ccc(C)cc2)C1C(C)C (configuration not stated) | i | -2.6
CC(C(=O)NCCN1CCOCC1)(c1ccccc1)c1ccccc1 | i | -2
CC1CCCC(C)N1/N=C/c1ccc(O)cc1 (configuration not stated) | i | -0.1
CSCCC(NC(=O)C1CCC(C)CC1)C(=O)OCC(=O)c1ccc(Cl)cc1 (configuration not stated) | i | 3.2
O=c1c2c(-c3ccco3)csc2nc(SCc2cn3cccnc3n2)n1-c1ccccc1 | i | 0.98
Cc1ccc2c(C)c(C(=O)N(C)Cc3nccn3C)oc2c1C | -7.6* | 0.47*
CCC(C)NCCOCCOc1ccc(F)cc1 (configuration not stated) | i | -0.24
COc1ccc(CCN=C(NS(=O)(=O)c2ccc(Cl)cc2)c2ccccc2)cc1 | i | 1
CCN(CC(=O)Nc1ccc(NC(C)=O)cc1)CC(=O)Nc1ccc(Cl)c(Cl)c1 | i | -0.14
O=C1c2ccccc2-c2nnc(-c3ccc(F)cc3)cc21 | i | -0.29
CCOC(=O)CNC(=O)CNC(=O)c1nn(-c2ccc(OC)c(Cl)c2)c(=O)c2ccccc12 | i | -0.09
Cc1ccc2ncnc(Oc3ncccc3[N+](=O)[O-])c2c1 | i | -0.06

Of the compounds above, these have a Cl atom:
SMILES | KCNQ2 inh | KCNQ2 inh baseline
CSCCC(NC(=O)C1CCC(C)CC1)C(=O)OCC(=O)c1ccc(Cl)cc1 (configuration not stated) | i | 3.2
COc1ccc(CCN=C(NS(=O)(=O)c2ccc(Cl)cc2)c2ccccc2)cc1 | i | 1
CCN(CC(=O)Nc1ccc(NC(C)=O)cc1)CC(=O)Nc1ccc(Cl)c(Cl)c1 | i | -0.14
CCOC(=O)CNC(=O)CNC(=O)c1nn(-c2ccc(OC)c(Cl)c2)c(=O)c2ccccc12 | i | -0.09

Continued:
SMILES | KCNQ2 inh | KCNQ2 inh baseline
Cc1nc(CCNC(=O)C2CCC(=O)N(Cc3cccc(F)c3)C2)sc1C (configuration not stated) | i | -0.21
Cc1oc2ccc(NS(=O)(=O)c3cccc4cccnc34)cc2c1C(=O)OC(C)C | i | -1.8
NC(=O)C1CCN(C(=O)CCSCc2ccc(Cl)c(Cl)c2)CC1 | i | 0.04
Cc1ccc(N2CC(C(=O)N3CCC(C(=O)Nc4cccc(Br)c4)CC3)CC2=O)cc1 (configuration not stated) | i | 0.31
CCOc1ccc(C(=O)Nc2ccc(S(=O)(=O)N3CCN(C)CC3)cc2)cc1 | i | -1
COC(=O)c1ccc(C(c2c(C)[nH][nH]c2=O)c2c(C)[nH][nH]c2=O)cc1 | i | 0.05
O=C(COc1cccc(C(F)(F)F)c1)Nc1cccnc1 | i | 2.6
COc1ccccc1CC(=O)NC1CCCc2ccccc21 (configuration not stated) | -7.1* | -0.74*
Cc1nc2c(ccc3nc(NC(=O)C(c4ccccc4)c4ccccc4)sc32)s1 | i | -0.73
CCCc1cc(-c2nc(-c3ccc(Cl)cc3)cs2)ccn1 | i | -0.79
Cc1ccc(CNC(=O)CSc2n[nH]c(N)n2)cc1 | i | 0.04
Cc1nc(C)c(C(=O)O)s1 | i | 0.01
CCOC(=O)N1CCN(C(=O)c2cc3cc(OC)c(OC)cc3[nH]2)CC1 | i | -0.93
COc1ccc(NC(=O)CSc2nccn2Cc2ccco2)c(OC)c1 | i | -3.5
Cc1ccc(S(=O)(=O)NC(C)C(c2cccs2)N2CCOCC2)cc1 (configuration not stated) | i | -2.4
COc1ccc(C(=O)NNC(=O)c2cc3cc(OC)ccc3oc2=O)cc1 | i | 0.01
Cc1onc(-c2ccccc2Cl)c1C(=O)N1CCCCC1 | i | 0.11
Cc1cccc(-c2noc(C(C)NC(=O)c3ccco3)n2)c1 (configuration not stated) | i | -0.48
O=C(COC(=O)c1cc([N+](=O)[O-])ccc1N1CCOCC1)NCc1ccc(F)cc1 | i | 0.18
CC(=O)c1ccc(N2CCN(C(=O)c3ccc(OCc4c(C)noc4C)cc3)CC2)cc1 | i | 2.4
CCOc1ccc(NC(=S)Nc2cc(-c3ccccc3)[nH]n2)cc1 | i | -1.7
CCCC(OC(=O)CN1C(=O)COc2ccccc21)C(=O)NC1CCCC1 (configuration not stated) | i | 3
CNC(=S)NNC(=O)COc1cccc(C)c1C | i | 1.5
CSCCNC(=O)c1ccc(C(C)(C)C)cc1 | i | 1
CCn1c(SCC(=O)NCCc2ccccc2)nc2c(c1=O)SC(C)C2 (configuration not stated) | i | 0.64
Cc1nc2ccc(NC(=O)c3cc(Cl)ccn3)cc2s1 | i | -2.6
CCOC(=O)C1=NNC(C(=O)c2ccc(OC)cc2)C1c1ccccc1 (configuration not stated) | i | -1.3
Cc1ccc2cc(CN(CC3CCCO3)C(=O)c3cccs3)c(=O)[nH]c2c1 (configuration not stated) | i | -1.1
Oc1ccccc1Nc1nc(NCc2ccccc2)c2ccccc2n1 | i | -1.1
Cc1noc(NS(=O)(=O)c2ccc(N/C=C/C(=O)c3ccc4c(c3)OCO4)cc2)c1C | i | -0.27
COc1ccccc1NC(=O)Cc1cccs1 | i | 0.01
O=C(CCc1ccc(Oc2cc([N+](=O)[O-])cc([N+](=O)[O-])c2)cc1)Nc1cccc(Cl)c1 | i | 1.6
COc1cccc(-c2csc(NC3OC(=O)c4c3ccc(OC)c4OC)n2)c1 (configuration not stated) | i | -2
COc1ccccc1N1CCN(C(=O)c2oc3ccc(F)cc3c2C)CC1 | -6.5* | 0.36*
CCOc1cccc(C(=O)Nc2ccc(S(=O)(=O)Nc3cc(C)on3)cc2)c1 | i | 0.37
Cc1ccc(SCCC(=O)NCC2CCCO2)cc1 (configuration not stated) | i | 0.66

Single records (already shown). Order of screens: KCNQ2 inh | KCNQ2 inh baseline
Shown for `Cc1nc2ccc(NC(=O)c3cc(Cl)ccn3)cc2s1` = i | -2.6
Shown for `CCn1c(SCC(=O)NCCc2ccccc2)nc2c(c1=O)SC(C)C2` (configuration not stated) = i | 0.64
Shown for `Cc1ccc2cc(CN(CC3CCCO3)C(=O)c3cccs3)c(=O)[nH]c2c1` (configuration not stated) = i | -1.1

Additional records
SMILES | KCNQ2 inh | KCNQ2 inh baseline
CN1C(=O)N(C)C2C1N(CN1CCCCC1)C(=O)N2CN1CCCCC1 (configuration not stated) | i | -0.09
Nc1ccccc1C#CCCCCO | i | -1.2
O=C(O)c1ccccc1-n1c2ccccc2c2ccccc21 | i | 0.03
Cc1c(C(=O)Nc2ccc(F)cc2)c2ccccn2c1CCc1ccncc1 | i | 1.6
O=C(NCCN=C1NS(=O)(=O)c2ccccc21)c1ccncc1 | i | -0.05
O=C(Cc1ccccc1)NNC(=S)NC(=O)c1cccnc1 | i | -0.07
CN1C=CC(=CC=C2C=CC(=O)C=C2)C=C1 | i | -0.03
O=C(CNC(=O)Cn1ccc2ccccc2c1=O)NCCCN1CCN(c2cccc(Cl)c2)CC1 | i | 0.69
N#Cc1c(NC(=O)C2CC(c3ccccc3Cl)=NO2)sc2c1CCC2 (configuration not stated) | i | 0.68
COc1cccc(C2C3=C(CC(C)(C)CC3=O)Nc3n[nH]c(C)c32)c1 (configuration not stated) | i | -1.5
C=CCn1c(SCC(=O)Nc2ccc(-c3nc4ccc(C)cc4s3)cc2)nnc1-c1ccncc1 | i | 1.7
Cc1cc(N2CCC(C)CC2)n2ncc(-c3ccccc3)c2n1 | -8.3* | -1.2*
CC#CC[N+](C)(C)CC(=O)c1ccccc1 | i | 0.68
CC(C)Nc1nc(-c2ccncc2)nc(-c2ccc(Cl)cc2)c1C#N | i | -0.82
Cc1noc(C)c1C(=O)N1CCN(c2ccc(OCc3ccccc3)cc2)CC1 | i | 0.13
Cc1n[nH]c(=O)nc1NCC1CCCO1 (configuration not stated) | i | -0.66
COC(=O)c1c(C)[nH]c(C(=O)C(C)Sc2nnc(-c3cc(OC)c(OC)c(OC)c3)o2)c1C (configuration not stated) | i | -0.58
O=C1C(C2=NC(c3ccccn3)C3C(=O)N(c4ccccc4)C(=O)C23)=C(O)c2ccccc21 (configuration not stated) | i | 0.33
O=C(Cn1nc(C(F)(F)F)c2c1CCC2)Nc1ccccc1C(F)(F)F | i | -0.81
CC1CCc2cc(F)ccc2N1S(=O)(=O)c1ccc(F)cc1 (configuration not stated) | i | -0.45
COc1ccccc1-c1cc(C(=O)NCCN2CCOCC2)no1 | i | 0.57
CN(C(=O)c1cccnc1)c1nnc(-c2ccccn2)s1 | i | -2.1
COCCNS(=O)(=O)c1ccc(OCC(=O)OC)c(Cl)c1 | i | 0.07
C[n+]1c2n(c3ccccc31)N=C(c1ccc(-c3ccccc3)cc1)CS2 | i | -0.83
COc1cc(OC)c(NC(=O)c2ccc(F)cc2)cc1Cl | i | -0.11
Cc1cc(NC(=O)C2CCCCC2C(=O)O)no1 (configuration not stated) | i | 0.67
O=C(NCCCN1CCOCC1)/C(=C/c1ccc(F)cc1)NC(=O)c1ccccc1 | i | -2.2
O=C(NC1CCCC1)C1CC(O)CN1C(=O)Nc1ccccc1 (configuration not stated) | i | -0.51
Cc1ccc(S(=O)(=O)N/N=C/c2cccc3nccnc23)cc1 | i | 0.08
CCN1CCCC1CNC(=O)Cn1nc(C)n2nc(-c3ccccc3)cc2c1=O (configuration not stated) | i | -0.37
COCCNC(=O)c1cc(-c2ccccc2)nn1CC1CC(c2cccnc2)=NO1 (configuration not stated) | i | 0.77
CCOC(=O)c1cc(CC)sc1/N=C/C1C(=O)CCCC1=O | i | 2.2
CC(C)C(=O)N1CCN(c2ccccc2NC(=O)c2ccc(C#N)cc2F)CC1 | i | -1.3
CCOC(=O)C1=C(Nc2ccc(Cl)cc2)OCC1=O | i | 2.8
COc1ccccc1NS(=O)(=O)c1ccc(C(=O)NCC2(N(C)C)CCCCC2)cc1 | i | 0.23
Cc1nn(Cc2ccccc2Cl)c(C)c1C(=O)NCCN1C(=O)S/C(=C\c2ccccc2)C1=O | i | -0.02
COCCN(C(=O)c1ccco1)c1nnc(-c2ccc(OC)c(OC)c2)s1 | i | 0.3
O=C(Nc1cc(S(=O)(=O)Nc2ccc(Cl)cc2)ccc1O)c1ccc(S(=O)(=O)N2CCCCCC2)cc1 | i | -0.3
CCN(CC)C(=O)CSc1nc2ccccc2c(=O)n1-c1ccccc1OC | i | 1.8
CCCc1nc2ccccc2n1Cc1ccccc1OC | i | -1.3
CC(C(=O)NCc1ccccc1)n1cc([N+](=O)[O-])cn1 (configuration not stated) | i | 1.8
CCCCn1c2ccc(F)cc2c2nnc(NN)nc21 | i | -1.1
Cc1ccc(-c2cc(-c3ccccc3)c3c(N)c(S(C)(=O)=O)sc3n2)cc1 | i | 0.04
O=C(CSc1nn(-c2ccc(F)cc2)c(=S)s1)N1CCN(C(=O)c2ccco2)CC1 | i | 0.82
CC1CCC/C(=N/NC(=O)c2ccccc2-n2cccc2)C1 (configuration not stated) | i | 0.51
O=C(c1cc2c(s1)CCCC2)N1CCN(c2ccccc2)CC1 | i | 0.02
CC(C)NC(=O)c1cc2n(n1)C(C(F)(F)F)CC(c1ccco1)N2 (configuration not stated) | i | 0.14
Nc1c(C(=O)N2CCCC2)sc2nc3c(cc12)CCCCCC3 | i | -1.2

Six of these compounds in a different format.
KCNQ2 inh	KCNQ2 inh baseline	mol
i	1.8	CCN(CC)C(=O)CSc1nc2ccccc2c(=O)n1-c1ccccc1OC
i	-1.3	CCCc1nc2ccccc2n1Cc1ccccc1OC
i	1.8	CC(C(=O)NCc1ccccc1)n1cc([N+](=O)[O-])cn1 (configuration not stated)
i	-1.1	CCCCn1c2ccc(F)cc2c2nnc(NN)nc21
i	0.04	Cc1ccc(-c2cc(-c3ccccc3)c3c(N)c(S(C)(=O)=O)sc3n2)cc1
i	0.82	O=C(CSc1nn(-c2ccc(F)cc2)c(=S)s1)N1CCN(C(=O)c2ccco2)CC1

Later entries:
SMILES | KCNQ2 inh | KCNQ2 inh baseline
CC1CCCCN1C(=O)c1ccc(COc2ccc([N+](=O)[O-])cc2)o1 (configuration not stated) | i | 1.9
O=C(/C=C/c1ccc(S(=O)(=O)NCc2ccco2)cc1)NCc1ccccc1Cl | i | -0.08
CCn1c(SCC(=O)Nc2ccc(C(C)=O)cc2)nc2c([nH]c3ccccc32)c1=O | i | 0.6
Cc1ccc(NC(=O)CSc2n[nH]c(-c3ccncc3)n2)cc1 | i | 1.7
COc1ccccc1Nc1nc(N)nc(CSC(=S)N2CCCCC2)n1 | i | -1.2
COc1cc(NC(=O)c2ccccc2F)ccc1NC(=O)c1cc2ccccc2o1 | i | 0.39
Cc1ccnc(NC(=O)C2(c3cccs3)CCOCC2)c1 | i | 0.56
CCCCSc1nnc([C@@H](NC(=O)OC(C)(C)C)C(C)C)o1 | i | -0.14
CC(SCC(=O)NC(C)C1CC2CCC1C2)C(=O)O (configuration not stated) | i | 0.45
CC(C)CN=CC1=C(O)c2ccccc2C1=O | i | 0.62
C[C@]12CCC3C(CC[C@H]4CC(O)CC[C@]34C)C1CC/C2=N/O (some centres not stated) | i | 1.5
CC1(N(O)C=C2C=CC(=O)C=C2)CCCCC1=O (configuration not stated) | i | 1.5
C/C(=N/NC(=O)c1ccccc1)c1ccc(NC(=O)C(F)(F)F)cc1 | i | -0.11
COc1ccc(C(=O)NC(C)c2ccc(-n3ccnc3)cc2)c(OC)c1OC (configuration not stated) | i | 0.55
CC(NC(=O)CCn1c(=S)[nH]c2ccsc2c1=O)c1ccccc1 (configuration not stated) | i | 1.6
CCN(CC)C(=O)c1nn(-c2ccccc2)c2c1C1CCC2(C)C1(C)C (configuration not stated) | i | -0.04
C[C@@]12C(=O)N(c3cccc(Br)c3)C(=O)N1[C@H](c1ccc(Cl)cc1)[C@@H]1C(=O)N(C3CCCCC3)C(=O)[C@@H]12 | i | -1.6
